TRPML1 ag: activates the human TRPML1 channel | Q9GZU1 | TRPML1-expressing cells, Ca2+ dye fluorescence, FDSS; host cell line not named in the record; reference of the full effect not given here | activation, % (concentration not given with the values) | actives 0.12% (n = 410,000); in the data active = activation above about 50%; inconclusive = about 30% to 50%; inactive = below about 30%; also: 0% is about no effect; the text of the record puts the active cut at 80%
Target sequence (Q9GZU1 whole entry, looked up): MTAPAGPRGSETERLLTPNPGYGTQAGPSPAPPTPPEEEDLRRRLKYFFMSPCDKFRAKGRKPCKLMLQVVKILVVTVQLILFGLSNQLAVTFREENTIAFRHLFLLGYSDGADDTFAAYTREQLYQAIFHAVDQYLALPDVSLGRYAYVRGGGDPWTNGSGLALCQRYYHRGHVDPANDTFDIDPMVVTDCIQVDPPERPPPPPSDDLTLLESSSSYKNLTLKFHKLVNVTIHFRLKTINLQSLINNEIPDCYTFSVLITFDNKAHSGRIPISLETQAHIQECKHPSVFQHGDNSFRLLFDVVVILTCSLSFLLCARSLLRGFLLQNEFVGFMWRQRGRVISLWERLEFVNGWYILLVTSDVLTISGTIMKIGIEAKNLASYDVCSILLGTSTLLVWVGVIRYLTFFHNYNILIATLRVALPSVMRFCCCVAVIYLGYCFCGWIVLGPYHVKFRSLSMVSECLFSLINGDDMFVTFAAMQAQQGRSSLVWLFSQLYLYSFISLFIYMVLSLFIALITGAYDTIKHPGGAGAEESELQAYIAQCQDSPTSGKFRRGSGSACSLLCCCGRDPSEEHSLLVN
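Kinetic FDSS Ca2+ read in Tet-induced TRPML1-DL cells (ABD Ca8 dye plus quencher, 45-90 min RT loading): baseline, then compound, then 110 s agonist window; EC80 agonist 54-4 at 4uM final added afterwards for a 110 s antagonist window.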
TRPML1 inh: human mucolipin-1 channel inhibition. TRPML1-inducible cells, Ca2+ dye fluorescence, FDSS; active compounds read low; inhibition of EC80 agonist-evoked calcium signal. activity change, negative = inhibition, % (test concentration not listed). actives 0.02% (n = 390,000). AID 624415; in the data active means activity change below about -50%; inconclusive means about -30% to -50%; inactive means above about -30%;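 also: stimulus is agonist 54-4 at its EC80 concentration; % is scaled to controls: 0 for no effect and ±100 for the full control effect; compound concentration not given in the record; the text of the record puts the active cut at -80%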
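Calcium fluorescence in TRPML1-DL cells induced overnight with Tet: a 110 s read after compound pin addition, then a 110 s antagonist read after challenge with 54-4 at 4 uM final (EC80).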
ClpP mod: qHTS Assay for Activators of ClpP | ATP-dependent Clp protease proteolytic subunit (Bacillus subtilis (strain 168)), P80244 | purified B. subtilis ClpP, FRET peptide cleavage, 20 min | Potency, µM (highest dose often 57.5 µM), inactives show at the top dose activity change, negative = active | actives 1.9% (n = 340,000); active = well fitted falling curve with a large enough effect; inconclusive = small, poorly fitted or top-dose-only effect; inactive = no such curve, though single readings can be large or run the other way; also: potency is read from the fitted curve at half-maximal effect; the source files actives as falling curves though it sought activators and does not explain the sign; nearly all actives have a fitted effect of over 65% in size; many hits overshoot -100%
Target sequence (P80244 whole entry, looked up): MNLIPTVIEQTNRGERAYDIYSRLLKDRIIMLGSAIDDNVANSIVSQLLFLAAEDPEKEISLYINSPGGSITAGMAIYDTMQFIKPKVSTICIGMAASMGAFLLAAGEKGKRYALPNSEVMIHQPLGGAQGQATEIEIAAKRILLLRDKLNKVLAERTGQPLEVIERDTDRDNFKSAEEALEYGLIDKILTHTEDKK
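Buffer: 100 mM Tris/HCl pH8, 100 mM KCl, 0.05% low protease BSA, 2.5% glycerol, 0.01% Tween-20. ClpP 10 microg/mL final; 20 min RT; delta FRET normalized to ADEP and DMSO controls.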
Menin-MLL FL inh: menin-MLL binding inhibition, fluorescein peptide; FP activity change, % at 61.4 µM; AID 1766; Fluorescence polarization, fluorescein-MLL peptide displacement from menin; 290,000 tested, under 10 active; inconclusive = falling polarisation curve, or a change in total fluorescence; inactive = total fluorescence flat and polarisation flat or rising; no compound was filed as active; the % refers to the polarisation; negative = inhibition;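 also: % of control where 0% means no effect; inhibitors lower the polarisation; unlabelled MLL peptide was the positive control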
gsp antagonist: antagonizes gsp, the McCune-Albright syndrome mutation; gsp-mutant cells, cAMP HTRF, 30 min; control for the full effect not named in the record; Potency, µM (doses to about 76.9 µM), for inactives: at the highest dose activity change, negative = inhibition, actives largely listed as inhibitors; actives 0.4% (n = 340,000); AID 624288; active = falling curve of any shape with a large fitted effect; inconclusive = falling curve, mostly with a smaller effect; inactive = flat or rising curve; cell line not stated here;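 also: intracellular cAMP measured with PDE inhibitor Ro 20-1724 present during compound exposure; potency is read from the fitted curve at half-maximal effect; % is scaled to controls: 0 for no effect and ±100 for the full control effect; nearly all actives have a fitted effect of over 65% in size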
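G418-selected cells were plated in DMEM/10% FBS for 16-24 h at 37C, then treated with compounds plus the PDE inhibitor […] (300 uM solution added) for 30 min at 37C. Intracellular cAMP was measured by HTRF after 30 min lysis at room temperature.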
gsp agonist: gsp mutant agonism; Potency, µM (doses to about 76.9 µM), for the others: at the top dose activation (cAMP increase), most hits filed as activators; actives 0.13% (n = 340,000); gsp mutant cells, cAMP HTRF, 30 min; control for the full effect not named in the record; active = well fitted activation curve with a large enough effect; inconclusive = small, poorly fitted or top-dose-only effect, or another doubt; inactive = no such curve, though single readings can be large or run the other way; cell line not stated here;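 also: phosphodiesterase inhibitor Ro 20-1724 added with compounds to block cAMP breakdown; potency is read from the fitted curve at half-maximal effect; nearly all actives have a fitted effect of over 60% in size; about a fifth of the inactives were tested at one dose only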
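Cells in DMEM/10% FBS with G418 were pretreated with compounds in DMSO plus […] (300 uM stock) for 30 min at 37C. cAMP was measured by HTRF (cAMP-d2 plus anti-cAMP antibody-K) after 30 min at room temperature.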
The depositor's hits bear a star; ? = inconclusive; nt = not tested or not shown; [ ] = dose if it differs, or a comment.

SMILES	TRPML1 ag	TRPML1 inh	ClpP mod	Menin-MLL FL inh	gsp antagonist	gsp agonist
CCc1ccc(NC(=O)CC2C(=O)NCCN2C(=S)Nc2ccccc2)cc1 (centres undefined)	0.3	0	0.7%	nt	-8%	15%
CCCOc1ccc(NC(=O)CC2C(=O)N(c3ccccc3)C(=O)N2Cc2ccco2)cc1 (centres undefined)	0.3	-2	1.6%	nt	nt	nt
O=C(Nc1ccccc1Cl)N1CCN(c2ncccn2)CC1	-1.3	1	0.4%	3.4	-6%	?
NC(=S)N/N=C/c1ccc(-c2ccccc2)o1	0.3	13	-12%	-1.7	5%	-7%
COc1cccc(-c2cc(C(=O)Nc3c(C)nn(Cc4ccccc4)c3C)no2)c1	1.5	20	0.3%	6.7	?	13%
Cn1c(NN)nc2sc3c(c2c1=O)CC(C)(C)OC3	0.0	-4	-0.5%	3.6	11%	13%
COc1ccc(N2CCN(C(c3ccccc3)c3nnc(-c4ccccc4Cl)o3)CC2)cc1 (centres undefined)	0.3	6	-14%	nt	nt	nt
CN1CCN(c2ccc(NC(=O)COc3ccc(Cl)cc3Cl)cc2)CC1	-0.5	3	0.8%	1.4	15%	-7%
CN(Cc1nc2ccccc2c(=O)[nH]1)Cc1nc2ccsc2c(=O)[nH]1	0.4	28	nt	-4.4	nt	8%[15.4 µM]
Cc1ccc(OS(=O)(=O)c2ccc(-c3csc(C)n3)s2)c(C)c1	1.7	35	nt	-0.8	-9%	-7%[15.4 µM]
CC(C)CNC(=O)COC(=O)CNC(=O)c1cc(Cl)cc([N+](=O)[O-])c1	0.1	-7	-5.8%	6.6	3%	-4%
COc1ccc(S(=O)(=O)N=Nc2c(O)[nH]c3ccccc23)cc1	-0.3	-4	-5.8%	3.6	18%	4%
CCOCC(=O)Nc1nnc(Cc2ccc(OC)c(OC)c2)s1	0.8	2	-3.5%	2.5	6%	16%
CN1CCCCc2c1[nH]c1ccccc1c2=O	-0.6	12	?	0.6	-8%	13%
Cc1ccc(OCC(=O)n2nc(C)cc2C)c(C)c1	-0.8	4	3.5%	-0.7	8%	-2%
CN(C)CCN(Cc1ccco1)c1ccccn1	1.2	-4	nt	nt	16%	-5%
CC(/C=C/c1ccccc1)=N\NC(=O)c1cc(C)nc2ccccc12	0.2	2	nt	2.3	-21%	-3%[15.4 µM]
COc1ccc(COC(=O)CN2C(=O)NC3(CCCC3)C2=O)cc1F	1.6	11	nt	nt	3%	-1%[15.4 µM]
Cc1c(C(=O)N2CCN(C(=O)c3ccco3)CC2)oc2c(Cl)cccc12	-0.3	1	1.3%	nt	-9%	-14%
Cc1cc(=O)oc2cc(Nc3ccccc3)ccc12	0.4	-28	-4.9%	0.9	1%	2%
COc1ccc(C(=O)Nc2nnc(SCC(=O)NC3CC3)s2)cc1	-0.2	-15	nt	1.6	-11%	-3%[15.4 µM]
COc1cccc2cc(C(=O)OCc3ccccc3)c(=O)oc12	-0.9	2	-2.9%	?	-10%	-10%[15.4 µM]
CCc1cc(=O)oc2c(C)c(OCC(=O)N3CCC(C(=O)O)CC3)ccc12	nt	nt	4.7%	-1.1	11%	nt
CCc1cc(Cn2nc(-c3ccccc3C)cc2C(=O)O)on1	0.2	11	1.6%	nt	-1%	nt
N#C/C(=C\c1cccs1)C(=O)c1ccccc1	0.0	5	-3.5%	0.8	-8%	-3%[15.4 µM]
SMILES	TRPML1 ag	TRPML1 inh	ClpP mod	Menin-MLL FL inh	gsp antagonist	gsp agonist
COc1cc(C(=O)NCC(c2cccnc2)N2CCN(c3ccccc3)CC2)cc(OC)c1OC (centres undefined)	-0.4	3	0.8%	0.3	-7%	-3%
CN1CCN(C(=O)c2ccc(N(Cc3ccccc3Cl)S(C)(=O)=O)cc2)CC1	-0.2	8	?	-0.9	5%	6%
CCN(CC)CCN1c2ccccc2Sc2ccccc21	0.8	22	-3.7%	nt	2%	-11%
C[C@H](NC(=O)c1nc[nH]c1C(=O)N1CCN(c2ccccc2)CC1)C(=O)OC(C)(C)C	0.4	-5	-4.6%	4.1	10%	nt
CCOC(=O)C1=C(N)Oc2cc(C)n(CCc3ccc(OC)c(OC)c3)c(=O)c2C1c1cccnc1 (centres undefined)	-0.5	-5	2.5%	0.2	-13%	-75%[inhibitor]
CCOC(=O)c1sc2nc(CSc3ccccc3)nc(N3CCCN(C)CC3)c2c1C	1.6	36	-8.9%	3.1	12%	30%
Cc1cccc(C)c1OCCCn1ccnc1	-0.5	3	1.3%	-1.9	1%	-27%
CCCCCCCCCn1c2c(c(=N)c3c1CCC3)CCC2	0.4	-2	-0.5%	0.9	5%	-6%[15.4 µM]
CCCCNC(=S)NCC(c1ccccc1)c1c[nH]c2ccccc12 (centres undefined)	0.4	3	nt	1.9	-29%	-15%
CCSc1nnc(NC(=O)CSc2sc3c(O)cc(=O)[nH]c3c2C#N)s1	-0.5	-10	nt	11	6%	2%[15.4 µM]
C=CCN(C)NC(=O)Nc1ccccc1	0.0	1	nt	2.8	9%	-30%[inhibitor]
COc1ccc(CN2CCN(C(=O)c3cccs3)CC2)c(OC)c1OC	-0.1	11	-8.8%	3.7	-10%	7%
CCOc1ccc(CCNC(=O)Cn2c(=O)oc3ccccc32)cc1OCC	1.2	15	0.5%	-1.3	-15%	12%
N#Cc1c(N(CCO)CCO)nc(N)c2c(N)nc3c(c12)CC(=O)N3Cc1cccs1	0.9	7	5.8%	-15	11%	18%
CS(=O)(=O)Cc1ccc(C(=O)N2CCN(C(=O)c3cccs3)CC2)cc1	0.1	7	-2.4%	nt	6%	21%
N/C(=N\OCc1ccc([N+](=O)[O-])cc1)c1ccncc1	1.0	3	nt	-3.0	-10%	0%[15.4 µM]
Cc1c(C(=O)NCc2cccnc2)oc2c1C(=O)CC(C)(C)C2	0.3	-20	0.3%	-0.5	-3%	8%
CCOC(=O)c1ccc(NC(=O)Cn2cc(S(=O)(=O)Cc3ccccc3F)c3ccccc32)cc1	3.3	1	-10%	nt	nt	nt
COc1cc(NCCCCCCN)c2ncccc2c1OC	1.1	1	nt	nt	-14%	13%
Cn1cc(C(=O)Nc2ccc(F)c(F)c2)cn1	0.4	-24	-0.8%	-0.3	-2%	35%
Cc1ccc2c(c1)C(SCC(=O)NCCc1ccccc1)CC1(CCCC1)O2 (centres undefined)	1.0	-8	-2.9%	0.6	-5%	-29%
Cc1ccn2c(=O)nc(SCC(=O)Nc3ccc4c(c3)OCO4)nc2c1	-0.7	-3	nt	nt	2%	-24%[15.4 µM]
CCOC(=O)COc1ccc2nsnc2c1	-0.2	3	?	4.8	-23%	24%
CCN1CCN(C(=O)c2cc3c(s2)-c2ccccc2S(=O)(=O)C3)CC1	-0.8	4	-8.7%	3.6	9%	16%
CCc1ccc(OCC(=O)Nc2c(C(=O)c3ccccc3)oc3ccccc23)cc1	1.3	35	-3.8%	nt	nt	nt
SMILES	TRPML1 ag	TRPML1 inh	ClpP mod	Menin-MLL FL inh	gsp antagonist	gsp agonist
CC(C)(C)c1ccc(C(=O)NNc2ncccc2-n2cccc2)cc1	1.2	7	1.0%	-6.9	6%	-15%
O=C(CNc1ccc(Cl)cc1)c1ccc(Br)cc1	-1.2	-13	-0.6%	-1.7	6%	8%[15.4 µM]
CCn1cc([N+](=O)[O-])c(C(=O)N2N=C(c3ccccc3)CC2c2ccc([N+](=O)[O-])cc2)n1 (centres undefined)	0.2	23	0.7%	-0.6	2%	-48%[inhibitor]
Cn1c2c(c(=O)n(C)c1=O)CN(Cc1ccco1)CN2	-0.4	5	?	-0.2	3%	6%
O=C1c2ccccc2C(=O)N1CCCN1C(=O)c2ccccc2C1=O	0.1	-1	nt	nt	11%	-1%
Cc1nc2cccnc2n1-c1cccc(C(=O)N2CCN(c3cccc(Cl)c3)CC2)c1	2.6	10	1.3%	nt	nt	nt
COc1ccccc1C(=O)OCc1nc(N)nc(Nc2ccccc2C)n1	-0.2	2	nt	2.4	14%	13%
CNC(=O)CS(=O)CC(=O)Nc1cc(OCCOC)c(Cl)cc1Cl (centres undefined)	-0.8	12	nt	4.6	12%	?
Cn1nc(C(C)(C)C)c([N+](=O)[O-])c1C(=O)N1CCOCC1	1.3	1	-0.4%	nt	-10%	28%
O=C(Nc1ccc2oc(-c3ccccc3)nc2c1)c1cc(-n2cnnc2)ccc1Cl	0.4	12	-15%	-2.7	?	2%
CCOC(=O)c1cc(-c2ccc(OC)cc2)n(CCC(=O)NC2CCCCC2)c1C	3.2	34	0.2%	nt	nt	nt
CSc1ncccc1C(=O)OCC(=O)N(C)c1c(N)n(Cc2ccccc2)c(=O)[nH]c1=O	-0.2	-11	0.5%	nt	16%	-8%
Cc1cccc(N(CC(=O)N2CCc3ccccc3C2)S(C)(=O)=O)c1C	-0.5	3	0.4%	-0.7	-9%	1%
CSc1nc(=O)c2c(n1C)NC(=O)CC2c1ccccc1OC(C)C (centres undefined)	-1.2	-9	-4.2%	nt	nt	nt
CCCCC(=O)N/N=C/c1ccc(N2CCOCC2)c([N+](=O)[O-])c1	-0.8	7	16%	1.0	11%	-15%
O=C(CCCN1C(=O)C(c2ccccc2)Oc2cccnc21)NCc1ccccc1Cl (centres undefined)	1.1	2	3.7%	0.0	?	-6%
COc1ccsc1C(=O)NCCN1CCOCC1	-0.1	2	-0.6%	-0.4	6%	-13%
CCOC(=O)C1=C(C)NC(=O)NC1c1ccco1 (centres undefined)	-0.1	17	-0.6%	0.7	4%	12%
Cc1cccc(N2CCN(S(=O)(=O)c3ccc4c(c3)CCN4C(=O)CCC(=O)O)CC2)c1C	1.2	7	0.2%	0.9	?	8%
NC(=S)N/N=C1\c2ccccc2-c2c(C(=O)O)cccc21	nt	nt	-0.7%	13	7%	1%
COc1ccc(Cl)cc1NC(=O)C(C)N1CCN(c2ccccn2)CC1 (centres undefined)	1.5	12	-6.2%	-2.8	-15%	-10%
Cc1cccc(/C=N/NC(=O)C2CCCNC2=O)c1 (centres undefined)	-0.4	5	-2.2%	-0.3	11%	-19%
Cc1c(OCc2nn[nH]n2)ccc2c3c(c(=O)oc12)CCCC3	1.1	6	?	0.6	?	22%

Part of the list above, in CSV form:
SMILES,TRPML1 ag,TRPML1 inh,ClpP mod,Menin-MLL FL inh,gsp antagonist,gsp agonist
CCCCC(=O)N/N=C/c1ccc(N2CCOCC2)c([N+](=O)[O-])c1,-0.8,7,16%,1.0,11%,-15%
O=C1c2ccccc2C(=O)N1CCCN1C(=O)c2ccccc2C1=O,0.1,-1,nt,nt,11%,-1%
O=C(Nc1ccc2oc(-c3ccccc3)nc2c1)c1cc(-n2cnnc2)ccc1Cl,0.4,12,-15%,-2.7,?,2%
Cc1cccc(/C=N/NC(=O)C2CCCNC2=O)c1 (centres undefined),-0.4,5,-2.2%,-0.3,11%,-19%

Source: PubChem

Compounds as they come, and some 2.1% of all compounds hit somewhere here.
